Source: PubChem BioAssay (Broad Institute)
Yeast UUG start = modulators of yeast start codon fidelity, primary screen, whole organism, S. cerevisiae, single point, plate reader; activity score, % at 18.7 µM; 350,000 tested, 0.13% active; S. cerevisiae UUG-firefly luciferase reporter, luminescence/redox ratio; AID 602363, 2012;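 active = replicate mean at a twofold rise or more, about +100% in these data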;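 also: firefly luciferase made from a UUG start codon reports start codon fidelity; reporter light over untreated wells divided by growth signal over untreated wells; some hits fall short of that in this replicate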
Env fusion inh = inhibitors of HIV-1 Env-driven cell-cell fusion, primary screen, HeLa-JRFL effector, CEM21 target cells, luciferase. inhibition, % at 12.3 µM. 360,000 tested, 1.1% active;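 active = mean replicate inhibition score of at least 50 and every replicate individually at or above 50; inconclusive = only one of the two criteria met; inactive = mean below 50 and not all replicates reaching 50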;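 also: 0% = plate neutral controls and 100% = maraviroc near 300 nM; one replicate is shown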
Numbers without * were called inactive; ? = inconclusive; [ ] = dose if it differs, or a comment.

Yeast UUG start,Env fusion inh,SMILES
-7,-39[16.7 µM],COc1ccc(NC(=O)N(C)C[C@@H]2Oc3ccc(NS(=O)(=O)c4ccc(Cl)cc4)cc3CC(=O)N([C@H](C)CO)C[C@@H]2C)cc1
-2,0[16.7 µM],O=C(C[C@H]1C=C[C@H](NC(=O)c2cccnc2)[C@@H](CO)O1)NCc1ccc(Cl)c(Cl)c1
-11,7[16.7 µM],C[C@@H]1CCCCO[C@@H](CN(C)C(=O)NC2CCCCC2)[C@@H](C)CN([C@H](C)CO)C(=O)c2cc(NC(=O)Nc3ccc(F)cc3)ccc2O1
4,73*[16.7 µM],COc1ccc(S(=O)(=O)Nc2ccc3c(c2)CC(=O)N([C@@H](C)CO)C[C@@H](C)[C@H](CN(C)Cc2ccc(C(F)(F)F)cc2)O3)cc1
10,3[16.7 µM],COc1ccc(S(=O)(=O)Nc2ccc3c(c2)CC(=O)N([C@H](C)CO)C[C@H](C)[C@H](CN(C)C(=O)Nc2c(C)noc2C)O3)cc1
-1,-11[16.7 µM],COc1cccc(-c2ccc3c(c2)O[C@@H](CN(C)C(=O)C2CC2)[C@@H](C)CN([C@H](C)CO)S3(=O)=O)c1
-6,16[16.7 µM],COc1ccc(-c2cn(CC[C@H]3CC[C@@H](NC(=O)c4cnccn4)[C@@H](CO)O3)nn2)cc1
-1,-12[16.7 µM],C[C@@H](O)C#Cc1ccc2c(c1)O[C@H](CN(C)C(=O)C1CCCCC1)[C@@H](C)CN([C@@H](C)CO)S2(=O)=O
-2,-3[16.7 µM],C[C@@H]1CN([C@@H](C)CO)C(=O)c2cc(NC(=O)C3CC3)ccc2O[C@H]1CN(C)C(=O)Nc1ccc2c(c1)OCO2
2,-1[16.7 µM],CO[C@@H]1CN(C)C(=O)c2cc(NS(C)(=O)=O)ccc2OC[C@@H](C)N(Cc2ccccc2)C[C@@H]1C

Continued:
Yeast UUG start,Env fusion inh,SMILES
5,23[16.7 µM],COc1ccc(NC(=O)Nc2ccc3c(c2)C(=O)N([C@@H](C)CO)C[C@@H](C)[C@H](CN(C)S(=O)(=O)c2c(C)noc2C)OCCCC[C@H](C)O3)cc1
-6,22[16.7 µM],O=C(N[C@H]1CC[C@H](CCn2cc(C3(O)CCCC3)nn2)O[C@H]1CO)C1CC1
16,4[16.7 µM],C/C=C/c1ccc2c(c1)O[C@H](CN(C)S(C)(=O)=O)[C@@H](C)CN([C@H](C)CO)S2(=O)=O
-13,-8[16.7 µM],CNC[C@H]1Oc2ccc(NC(=O)Nc3cccc4ccccc34)cc2CC(=O)N([C@@H](C)CO)C[C@H]1C
16,4[16.7 µM],C[C@@H]1CN([C@@H](C)CO)C(=O)c2cccc(NS(=O)(=O)c3ccc(F)cc3)c2O[C@H]1CN(C)S(=O)(=O)c1ccc(Cl)cc1
-3,7[16.7 µM],Cc1noc(C)c1NC(=O)Nc1cccc2c1O[C@@H](CN(C)C(=O)Nc1ccc3c(c1)OCO3)[C@@H](C)CN([C@@H](C)CO)C2=O
3,-57[16.7 µM],C[C@@H]1CCCCO[C@H](CN(C)Cc2ccncc2)[C@H](C)CN([C@@H](C)CO)C(=O)c2cc(NC(=O)Nc3cccc4ccccc34)ccc2O1
-7,-18[16.7 µM],O=C(C[C@@H]1C=C[C@H](NC(=O)NC2CCCCC2)[C@@H](CO)O1)NCc1ccccc1
-12,-11[16.7 µM],O=C(C[C@H]1CC[C@@H](NC(=O)C2CCOCC2)[C@H](CO)O1)NCC1CCCCC1
7,-3[16.7 µM],C[C@H]1CCCCO[C@H](CN(C)C(=O)CCCN(C)C)[C@@H](C)CN([C@@H](C)CO)C(=O)c2cc(NC(=O)Cc3ccccc3)ccc2O1

Later entries.
Yeast UUG start,Env fusion inh,SMILES
10,-13[16.7 µM],CC(C)NC(=O)N(C)C[C@@H]1Oc2ncc(-c3cccc(C(F)(F)F)c3)cc2C(=O)N([C@H](C)CO)C[C@@H]1C
-2,-8[16.7 µM],Cc1ccc(S(=O)(=O)Nc2ccc3c(c2)CC(=O)N([C@H](C)CO)C[C@H](C)[C@@H](CN(C)S(=O)(=O)c2ccccc2)O3)cc1
4,-9[16.7 µM],O=C(Cc1ccccn1)NCC[C@H]1CC[C@@H](NC(=O)c2ccccc2F)[C@H](CO)O1
-3,-19[16.7 µM],C[C@H](CO)N1C[C@H](C)[C@H](CN(C)C(=O)NC2CCCCC2)Oc2ncc(C#CC(C)(C)O)cc2C1=O
2,-3[16.7 µM],C[C@@H]1CN([C@@H](C)CO)C(=O)c2cc(C#CC3CCCC3)cnc2O[C@@H]1CN(C)C(=O)c1ccncc1
3,5[16.7 µM],CCC(=O)N[C@H]1CC[C@H](CCNS(=O)(=O)c2ccc(Cl)cc2)O[C@@H]1CO
1,10[16.7 µM],N#C[C@H]1[C@H](c2ccc(C#CC3CCCC3)cc2)[C@@H](CO)N1S(=O)(=O)c1ccccc1
-6,0[16.7 µM],C[C@H](CO)N1C[C@H](C)[C@H](CN(C)C(=O)Nc2cccc3ccccc23)Oc2c(NC(=O)c3ccncc3)cccc2C1=O
-10,-8[16.7 µM],COc1ccccc1S(=O)(=O)N[C@@H]1C=C[C@H](CC(=O)N2CCOCC2)O[C@H]1CO
1,-15[16.7 µM],CC(C)C#Cc1ccc2c(c1)O[C@H](CN(C)C(=O)NC(C)C)[C@@H](C)CN([C@H](C)CO)S2(=O)=O

More results:
Yeast UUG start,Env fusion inh,SMILES
15,-43[16.7 µM],Cc1noc(C)c1S(=O)(=O)N(C)C[C@@H]1Oc2ccc(NS(=O)(=O)c3ccc(Cl)cc3)cc2CC(=O)N([C@H](C)CO)C[C@H]1C
-12,?,C[C@@H]1CN([C@@H](C)CO)C(=O)c2cccc(NC(=O)Nc3ccc(F)cc3)c2O[C@H]1CN(C)Cc1ccc(-c2ccccc2)cc1
16,-3[16.7 µM],C[C@@H]1CN([C@@H](C)CO)C(=O)c2cc(/C=C/c3ccccc3)cnc2O[C@H]1CN(C)Cc1cccc(C(=O)O)c1
26,-24[16.7 µM],CN1CCN(C(=O)C[C@@H]2C[C@H]3c4cc(NC(=O)Nc5ccccc5)ccc4O[C@H]3[C@@H](CO)O2)CC1
-9,1[16.7 µM],CO[C@@H]1CN(C)C(=O)c2cc(NC(=O)Nc3cc(F)ccc3F)ccc2OC[C@@H](C)N(C)C[C@H]1C
-9,-14[16.7 µM],C[C@@H]1CCCCO[C@H](CN(C)Cc2ccc(C(=O)O)cc2)[C@@H](C)CN([C@H](C)CO)C(=O)c2cc(NC(=O)c3ccccc3)ccc2O1
-2,2[16.7 µM],CC(C)C[C@@H]1NC(=O)[C@H]2C[C@@H](C(=O)NCc3ccc(F)cc3)[C@@H](c3ccc(O)cc3)N2C1=O
7,18[16.7 µM],O=C(NCC[C@@H]1CC[C@@H](NS(=O)(=O)c2ccc(Oc3ccccc3)cc2)[C@@H](CO)O1)C1CC1
3,12[16.7 µM],CC(C)CC#Cc1ccc2c(c1)O[C@@H](CN(C)C)[C@@H](C)CN([C@H](C)CO)S2(=O)=O
3,-28[16.7 µM],C[C@@H]1CCCCO[C@@H](CN(C)S(=O)(=O)c2ccc(F)cc2)[C@@H](C)CN([C@H](C)CO)C(=O)c2cc(NS(=O)(=O)c3ccccc3)ccc2O1

One compound at a time, from the list above. Values in the order: Yeast UUG start | Env fusion inh
Shown for O=C(NCC[C@@H]1CC[C@@H](NS(=O)(=O)c2ccc(Oc3ccccc3)cc2)[C@@H](CO)O1)C1CC1 → 7 | 18[16.7 µM]
Shown for Cc1noc(C)c1S(=O)(=O)N(C)C[C@@H]1Oc2ccc(NS(=O)(=O)c3ccc(Cl)cc3)cc2CC(=O)N([C@H](C)CO)C[C@H]1C → 15 | -43[16.7 µM]
Shown for CO[C@@H]1CN(C)C(=O)c2cc(NC(=O)Nc3cc(F)ccc3F)ccc2OC[C@@H](C)N(C)C[C@H]1C → -9 | 1[16.7 µM]
Shown for C[C@@H]1CCCCO[C@@H](CN(C)S(=O)(=O)c2ccc(F)cc2)[C@@H](C)CN([C@H](C)CO)C(=O)c2cc(NS(=O)(=O)c3ccccc3)ccc2O1 → 3 | -28[16.7 µM]

The list goes on:
Yeast UUG start,Env fusion inh,SMILES
-3,-21[16.7 µM],O=C(C[C@@H]1C=C[C@@H](NS(=O)(=O)c2ccc(F)cc2)[C@@H](CO)O1)NCc1ccncn1
3,0[16.7 µM],C[C@H](CO)N1C[C@H](C)[C@@H](CN(C)Cc2ccccc2)Oc2cc(-c3cncnc3)ccc2S1(=O)=O
19,0[16.7 µM],C[C@@H]1CN([C@H](C)CO)C(=O)c2cc(NS(=O)(=O)c3ccc(F)cc3)ccc2O[C@@H](C)CCCCO[C@@H]1CN(C)C
-9,1[16.7 µM],CO[C@@H]1CN(C)C(=O)c2cc(NC(C)=O)ccc2OC[C@H](C)N(Cc2nccs2)C[C@@H]1C
-1,-2[16.7 µM],COc1ccc(CN(C)C[C@@H]2OCCCC[C@@H](C)Oc3ccc(NC(=O)Nc4c(C)noc4C)cc3C(=O)N([C@@H](C)CO)C[C@@H]2C)cc1
-2,2[16.7 µM],C[C@@H]1CCCCO[C@@H](CN(C)C(=O)Nc2cccc3ccccc23)[C@@H](C)CN([C@H](C)CO)C(=O)c2cc(NS(=O)(=O)c3cn(C)cn3)ccc2O1
-21,-4[16.7 µM],O=C(O)C[C@@H]1C=C[C@H](NC(=O)Nc2ccccc2)[C@@H](CO)O1
-6,8[16.7 µM],COc1ccc(NC(=O)Nc2ccc3c(c2)C(=O)N([C@@H](C)CO)C[C@@H](C)[C@H](CN(C)S(=O)(=O)c2ccccc2)OCCCC[C@@H](C)O3)cc1
28,6[16.7 µM],C[C@H]1CN([C@@H](C)CO)S(=O)(=O)c2ccc(C#CCN(C)C)cc2O[C@H]1CN(C)C(=O)CN(C)C
0,-29[16.7 µM],C[C@H](CO)N1C[C@H](C)[C@@H](CN(C)C(=O)Cc2cccnc2)Oc2cc(C#CC3(O)CCCC3)ccc2S1(=O)=O

(more compounds)
Yeast UUG start,Env fusion inh,SMILES
4,-5[16.7 µM],COc1ccc(S(=O)(=O)N(C)C[C@H]2Oc3ccc(N(C)C)cc3CC(=O)N([C@@H](C)CO)C[C@H]2C)cc1
191*,-10[16.7 µM],CN(C)CC(=O)N[C@H]1CC[C@H](CCn2cc(CN(C)C)nn2)O[C@H]1CO
-2,17[16.7 µM],COc1ccc(S(=O)(=O)Nc2ccc3c(c2)C(=O)N([C@H](C)CO)C[C@H](C)[C@H](CN(C)C(=O)Nc2ccc4c(c2)OCO4)O3)cc1
2,-27[16.7 µM],O=C(NCC[C@@H]1CC[C@@H](NC(=O)C2CC2)[C@@H](CO)O1)Nc1ccc(Cl)cc1
16,34[16.7 µM],C[C@H]1CCCCO[C@@H](CN(C)S(=O)(=O)c2ccc(F)cc2)[C@@H](C)CN([C@@H](C)CO)C(=O)c2cc(NS(=O)(=O)c3ccc(Cl)cc3)ccc2O1
-3,-13[16.7 µM],CNC(=O)C[C@H]1CC[C@@H]2[C@H](COc3ccc(NC(=O)c4ccccc4Cl)cc3C(=O)N2C)O1
1,14[16.7 µM],COCCOC(=O)N1C(=O)[C@@]2(c3cc(C#CCCO)ccc31)[C@H](C(N)=O)[C@H]1C(=O)O[C@H](c3ccccc3)[C@H](c3ccccc3)N1[C@@H]2c1ccccc1OCCO
-9,2[16.7 µM],COC(=O)C[C@@H]1CC[C@H]2[C@H](COc3ccc(NS(C)(=O)=O)cc3C(=O)N2C)O1
-10,9[16.7 µM],C/C=C/c1ccc2c(c1)O[C@H](CN(C)C(=O)C1CC1)[C@@H](C)CN([C@H](C)CO)S2(=O)=O
2,5[16.7 µM],C[C@H](CO)N1C[C@H](C)[C@H](CN(C)C(=O)CN2CCOCC2)Oc2ncc(-c3ccncc3)cc2C1=O

Remaining list, next part:
Yeast UUG start,Env fusion inh,SMILES
0,-25[16.7 µM],COc1ccc(S(=O)(=O)Nc2ccc3c(c2)CC(=O)N([C@@H](C)CO)C[C@H](C)[C@@H](CN(C)S(=O)(=O)c2ccc(OC)cc2)O3)cc1
-3,-9[16.7 µM],CCC(=O)N(C)C[C@H]1Oc2cc(C#CC(C)(C)O)ccc2S(=O)(=O)N([C@H](C)CO)C[C@H]1C
29,5[16.7 µM],C[C@H]1CN([C@@H](C)CO)S(=O)(=O)c2ccc(C#Cc3cccc(F)c3)cc2O[C@@H]1CN(C)C(=O)NC1CCCCC1
9,-29[16.7 µM],Cc1cc(C(=O)Nc2cccc3c2O[C@H](CN(C)C(=O)Nc2ccc(C(F)(F)F)cc2)[C@H](C)CN([C@H](C)CO)C3=O)n(C)n1
5,11[16.7 µM],Cc1noc(C)c1NC(=O)Nc1ccc2c(c1)C(=O)N([C@H](C)CO)C[C@@H](C)[C@@H](CN(C)Cc1ccc(Cl)c(Cl)c1)OCCCC[C@H](C)O2
-2,-8[16.7 µM],C[C@H](CO)N1C[C@H](C)[C@H](CN(C)Cc2ccc(Cl)c(Cl)c2)Oc2ccc(NS(=O)(=O)c3cccs3)cc2C1=O
2,25[16.7 µM],C[C@@H]1CN([C@@H](C)CO)C(=O)Cc2cc(NC(=O)c3ccncc3)ccc2O[C@H]1CN(C)Cc1ccccc1

Individual results from the results shown:
C[C@H]1CN([C@@H](C)CO)S(=O)(=O)c2ccc(C#Cc3cccc(F)c3)cc2O[C@@H]1CN(C)C(=O)NC1CCCCC1 in Env fusion inh → 5[16.7 µM]
C[C@@H]1CN([C@@H](C)CO)C(=O)Cc2cc(NC(=O)c3ccncc3)ccc2O[C@H]1CN(C)Cc1ccccc1 in Env fusion inh → 25[16.7 µM]
C[C@H](CO)N1C[C@H](C)[C@H](CN(C)Cc2ccc(Cl)c(Cl)c2)Oc2ccc(NS(=O)(=O)c3cccs3)cc2C1=O in Env fusion inh → -8[16.7 µM]

These rows are one share of the data (hit frequency here may not be typical).
